Bioassay records from PubChem.
SmPrx2 inh: Schistosoma Mansoni Peroxiredoxins (Prx2); AID 448, 2006; 65,000 compounds, 0.07% hits; S. mansoni Prx2 activity coupled to TGR/GSH (TGR is thioredoxin glutathione reductase), NADPH fluorescence loss, qHTS; some inactives read as strong as hits; Potency, µM; active means full or partial inhibition curve with a strong effect at the top dose; inconclusive means weaker partial or single-point curve; inactive means no accepted curve; also: series up to 57 µM; many of its hits are not listed in these tables
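Coupled assay in which S. mansoni TGR passes NADPH reducing equivalents via glutathione to Prx2, which reduces H2O2. Compounds were preincubated 15 min at room temperature with 25 nM TGR/50 nM Prx2 mix. Kinetic NADPH fluorescence loss (ex 365/em 450 nm) was monitored.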
LT uptake inh: qHTS Assay for Anthrax Lethal Toxin Internalization | Cells, anthrax lethal toxin internalization, FRET ratio (460/530) | Potency, µM (titrated, usually from 40 µM), for the others: top-dose activity change, negative = inhibition, actives largely listed as inhibitors | 70,000 compounds, 0.67% hits; active = well fitted falling ratio curve with the 530 nm signal flat; inconclusive = other ratio curves, or a change in one channel alone; inactive = flat curves in the ratio and both channels; the % refers to the ratio; also: % is scaled to controls: 0 for no effect and ±100 for the full control effect; nearly all actives have a fitted effect of over 50% in size; tested in ME-180 cells; beta-lactamase reporter
* hit, by the source's call; ? = inconclusive; . = not tested or not shown; & = joins results of further samples; [ ] = another dose, or the depositor's remark. Potency is read from the fitted curve at half-maximal effect. A portion of the library; the hit share may differ from the screen's.

mol | SmPrx2 inh | LT uptake inh
COc1ccc(CN2CC(C(=O)NCCCOC(C)C)CC2=O)cc1 (configuration not stated) | >57 | 10%
CC(=O)Nc1cnn(Cc2ccc(Br)cc2)c1 | >57 | 2%
CCOC(=O)N1CCC(N2C(=O)c3ccc(C(=O)NCc4ccco4)cc3C2=O)CC1 | >57 | 1%
CCOC(=O)CSc1nc2c(c(=O)[nH]c(=O)n2C)n1C/C=C(/C)Cl | >57 | -1%
CCCCn1nnc(NC(=O)c2ccco2)n1 | >57 | 6%
CCNc1nc(NCC)nc(OCCOC(=O)c2ccccc2)n1 | >57 | -4%
Fc1ccc(OCc2nn3cnnc3s2)cc1 | >57 | -10%
O=C(CC12CC3CC(CC(C3)C1)C2)N1CCOCC1 | . | 12%
NC(=O)CN1C2CCC1CC(NC(=O)C1CC1)C2 (configuration not stated) | >57 | -1%
O=C(NCc1ccco1)c1ccc(OCC2CCCO2)cc1 (configuration not stated) | >57 | 8%
O=C(Nc1ccc2oc(-c3cccnc3)nc2c1)c1cccnc1 | >57 | -19%
COc1ccc(Oc2ncc3nc(-c4cccs4)c(=O)n(CCC#N)c3n2)cc1 | >11 | ?
CCn1c(SCc2nc3ccccc3s2)nc2cc(S(=O)(=O)N3CCOCC3)ccc21 | >57 | -10%
COc1ccc(OC)c([C@H](O)CNC(=O)CN)c1 | >57 | 1%[3.58 µM]
Cc1ccccc1C(=O)Nc1ccc(Br)cn1 | . | ?
Cc1ccc2c(c1)cc(CN(CCc1ccccc1)C(=O)N1CCOCC1)c1nnnn12 | >57 | -4%
Cc1ccc(C)c(N2CCN(C(=O)c3ccc(CS(=O)(=O)c4ccccc4C)o3)CC2)c1 | >57 | ?
COc1ccc(-c2cc(C(=O)NCc3cccs3)no2)cc1OC | . | -8%
CCOc1ccc(-c2nc(-c3ccc(OC)c(OC)c3)no2)cc1OCC | >57 | .
O=C(CN(C(=O)Cn1nnc(-c2cccs2)n1)c1ccc2c(c1)OCCO2)NC1CCCCC1 | >57 | -10%
Cc1csc(SCC(=O)c2cc(C)n(Cc3cccs3)c2C)n1 | >57 | ?
Cn1c(C(=O)NC2CCCCC2)cc2sccc21 | >57 | -2%
COc1cc(C(=O)n2nc(C)cc2C)cc(OC)c1OC | >57 | 5%
Cc1cc(C(F)F)n2ncc(C(=O)NCc3ccccc3)c2n1 | >57 | 9%
Cn1c(SCC(=O)NC2CC2)nnc1-c1ccco1 | >57 | -9%

Continued; the last two above are carried over.
mol | SmPrx2 inh | LT uptake inh
Cc1cc(C(F)F)n2ncc(C(=O)NCc3ccccc3)c2n1 | >57 | 9%
Cn1c(SCC(=O)NC2CC2)nnc1-c1ccco1 | >57 | -9%
NNc1c(C(N)=O)c2c(N)ncnc2n1[C@@H]1O[C@H](CO)[C@@H](O)[C@@H]1O | >57 | -11%[8 µM]
COc1ccc(OC)c(C2NC(=O)NC(C)=C2C(=O)Nc2ccc(C)cc2)c1 (configuration not stated) | . | 10%
Cc1noc(C)c1S(=O)(=O)N1CCCC(C(=O)NCCc2ccccc2)C1 (configuration not stated) | >57 | -1%
O=C(NCC(=O)N(CCN1CCOCC1)C(C(=O)NC1CCCC1)c1cccs1)c1ccco1 (configuration not stated) | >57 | 8%
N#Cc1ccc(CN2CCCC3(CCN(C(=O)c4csnn4)CC3)C2)cc1 | >57 | 18%
O=C(CSc1ccc(Cl)cc1)Nn1cnnc1 | >57 | -14%
O=C(NCc1cccs1)c1ccc(N2CCCCC2)nc1 | >57 | ?
CC(=O)OC[C@@H]1O[C@@H](Oc2cc(OC(C)=O)c3c(=O)cc(-c4ccc(OC(C)=O)c(OC(C)=O)c4)oc3c2)[C@H](OC(C)=O)[C@H](OC(C)=O)[C@@H]1OC(C)=O | >57 | ?
Cc1cccc(NC(=O)CSc2nnc(CSc3nc(C)cc(C)n3)n2Cc2ccco2)c1 | >57 | -3%
Cn1c(CN2CCCCC2)nc2cc(NS(=O)(=O)c3ccc(Cl)cc3)ccc21 | >57 | -17%
Cc1ccc(-c2csc(=S)n2CC(=O)OCC(=O)NCc2ccco2)cc1 | >57 | -14%
CCn1c(C(Cc2ccccc2)NC(=O)COC)nc2ccccc21 (configuration not stated) | >57 | 7%
Cc1cccc(Nc2ccccc2)c1 | >57 | .
CN1C[C@H](CNC(=O)OCc2ccccc2)C[C@H]2c3cccc4c3c(cn4C)C[C@@H]21 | >26&>57&>57 | ?
CCOC(=O)C(CCC#N)(CCC#N)C(=O)OCC | >57 | -4%
Cc1ccc(S(=O)(=O)NC(=O)N2CCC(C)CC2)cc1 | >57 | 7%
c1csc(C(c2nnnn2C2CCCC2)N2CCOCC2)c1 (configuration not stated) | >57 | -7%
COc1ccc(CCNc2ncnc3[nH]ncc23)cc1OC | >57 | -1%
COc1ccc(-n2c(SCC#N)nnc2-c2cccnc2)cc1 | >57 | -3%
COC(=O)Nc1nnc(Cc2ccccc2)s1 | >57 | 9%
Cc1cc(C)c(C#N)c(SCc2ccc3c(c2)OCO3)n1 | >57 | ?
Cc1ccccc1-c1ccc2ncnc(N3CCNCC3)c2c1 | >57 | -16%
Fc1ccc(-n2c(-c3ccco3)nc3nc4ccccc4nc32)cc1 | >57 | ?
O=C(C1CC(c2ccc(F)cc2)=NO1)N1CCN(c2ccccc2)CC1 (configuration not stated) | >57 | -15%
CCCCn1c(O)c(C(C)=NC(C)c2ccccc2)c(=O)[nH]c1=O (configuration not stated) | >57 | 4%
COc1ccccc1NC(=O)C(C)NS(=O)(=O)c1ccc(Cl)cc1 (configuration not stated) | >57 | -11%
O=S(=O)(Nc1ncnc2sc3c(c12)CCC3)c1ccc(Cl)s1 | >57 | -10%
O=C(C1CC1)n1cc(C(=S)N2CCOCC2)c2ccccc21 | >57 | -15%
Cc1ccc(OCCn2c(NC(=O)c3ccco3)nc3ccccc32)cc1 | >57 | -19%
CCOc1ccc2nc(N3CCC(C(=O)N4CCN(c5ccccn5)CC4)CC3)sc2c1 | >57 | -25%
CCOC(=O)c1c(-c2ccco2)csc1N | >57 | ?
C[N+](C)(C)CCOC(=O)CCC(=O)OCC[N+](C)(C)C | >57 | 5%
Cc1ccccc1Cn1c(=N)n(CC(O)c2ccco2)c2ccccc21 (configuration not stated) | >57 | 1%
CC(C)(C)C1(c2ccccc2)NC(=O)N(CC(=O)N2CCOCC2)C1=O (configuration not stated) | >57 | .
Cc1cc(N2CCN(C(=O)c3ccco3)CC2)n2nc(C)c(-c3ccccc3)c2n1 | >57 | 10%
O=C(NCc1cccs1)c1nc2c(nnn2Cc2ccccc2Cl)c(=O)[nH]1 | >57 | ?
C=CCOc1ccc(C2C(C(=O)c3ccco3)=C(O)C(=O)N2Cc2cccnc2)cc1 (configuration not stated) | >57 | -5%
CCCCCOc1ccc(C2NC(=O)NC2=O)cc1 (configuration not stated) | >57 | -25%
c1ccc(-n2c(SCC3CCCCO3)nnc2-c2cnccn2)cc1 (configuration not stated) | >57 | ?
CCOc1ccccc1NC(=O)CN(C)S(=O)(=O)c1ccc(OC)c(C)c1 | >57 | ?
Cc1cc(C)nc(/N=C(\N)C2=C(O)CC(C)(C)CC2=O)n1 | >57 | -11%
Nc1nc(Nc2cccc(F)c2)nc2ccccc12 | >57 | ?
Fc1ccccc1C(c1nnnn1Cc1ccc2c(c1)OCO2)N1CCN(Cc2ccccc2)CC1 (configuration not stated) | >57 | -12%
CCOC(=O)N1CCN(S(=O)(=O)c2cc(OCC)ccc2OCC)CC1 | ? | 3%
Cn1c(=O)c2c(nc(CN3CCN(CCO)CC3)n2Cc2cccc3ccccc23)n(C)c1=O | >57 | -3%
CCN(CC)CCN1C(=O)C(O)=C(C(=O)c2ccc(C)o2)C1c1ccccn1 (configuration not stated) | >57 | -13%
CC(C)C1Oc2ccccc2N(CC(=O)N(Cc2ccccn2)CC2CCCO2)C1=O (configuration not stated) | >57 | -17%
Cc1nc(N2CCN(C)CC2)c2sc(=S)n(-c3ccccc3)c2n1 | >57 | -10%
Cc1cccc(-n2c(N)cc(=O)nc2SC(C)C(=O)NC2CCCCC2)c1 (configuration not stated) | >57 | -15%
Cc1ccc(C)c(C(=O)CSc2n[nH]c(C)n2)c1 | >57 | -1%

The results go on.
mol | SmPrx2 inh | LT uptake inh
CCN1CCN(Cc2ccc(NC(=O)Nc3cccs3)cc2)CC1 | >57 | -31%
CCCCCCCCCC(=O)O[C@H](CC(=O)O)C[N+](C)(C)C | >57 | ?
Cc1onc(-c2ccccc2)c1C(=O)Nc1ccccc1C#N | >57 | -7%
Cc1nn(C)cc1CNC(=O)c1cnn2c1NC(c1ccc(Br)cc1)CC2C(F)(F)F (configuration not stated) | >57 | ?
Cc1ccc2c(C)nc(Nc3nc(CSc4nnnn4-c4ccccc4)cc(=O)[nH]3)nc2c1 | >57 | 10%
CCCCNC(=O)CC1N=C2c3ccccc3N=C(SCC(=O)Nc3cccc(C)c3)N2C1=O (configuration not stated) | >57 | -6%
COc1ccc(NC(=O)CN(c2cc(C)cc(C)c2)S(=O)(=O)c2c(C)n[nH]c2C)cc1 | >57 | -12%
Cc1ccc2nc(NC3=NCN(Cc4ccco4)CN3)nc(C)c2c1 | >57 | -17%
Cc1cc(/C=N/n2cnnc2)c(C)n1-c1ccc(OCc2ccccc2F)cc1 | . | ?
CCC(=O)Nc1c(C)ccc2nsnc12 | >57 | -17%
CS(=O)(=O)NCC(c1cccnc1)N1CCN(c2ccc(F)cc2)CC1 (configuration not stated) | >57 | 0%
N#CC1=C(N)Oc2n[nH]c(-c3ccccc3)c2C1c1cccc(OC(=O)N2CCOCC2)c1 (configuration not stated) | . | 16%
N#CC1(C#N)C2=C(CCCC2)NC(c2ccccc2)C1(C#N)C#N (configuration not stated) | >57 | ?
O=C(CCn1nnc2ccccc21)Nc1nnc(COc2ccc(F)cc2)s1 | >57 | 5%
COc1ccc(-n2nnnc2SCC(=O)Nc2ccc3c(c2)OCCO3)cc1OC | >57 | ?
COc1ccc(N(C(=O)c2ccco2)C(C(=O)NC2CCCC2)c2ccc(N(C)C)cc2)cc1 (configuration not stated) | >57 | -15%
Cc1noc(/C=C/N(C)C)c1S(=O)(=O)N1CCCC(C(=O)N2CCCCC2)C1 (configuration not stated) | . | 8%
CCSC1=C(C#N)C(c2cccc(OC)c2)CC(=O)N1 (configuration not stated) | >57 | 24%
CC1Cc2ccccc2N1S(=O)(=O)c1cccc(C(=O)NC2CC2)c1 (configuration not stated) | >57 | -7%
C#CCNc1nc(CC)nc2c1nnn2Cc1ccccc1F | >57 | -13%
CN(C)C(=O)c1cc(S(=O)(=O)N(C)C)c(Cl)cc1N1CCCC1 | >57 | 10%
COc1cc(NC(=O)C(C)Oc2ccccc2)c(C(=O)O)cc1OC (configuration not stated) | >57 | -2%
O=S(=O)(NCc1ccccn1)c1cccc2nsnc12 | >57 | -6%
O=C(Cn1cnc2ccccc2c1=O)NCC(=O)N1CCN(Cc2ccc3c(c2)OCO3)CC1 | >57 | -19%
NC[C@H](O)c1ccc(O)cc1 | >57&>57 | ?

For reference, some entries already given.
mol | SmPrx2 inh | LT uptake inh
C#CCNc1nc(CC)nc2c1nnn2Cc1ccccc1F | >57 | -13%
CN(C)C(=O)c1cc(S(=O)(=O)N(C)C)c(Cl)cc1N1CCCC1 | >57 | 10%
COc1cc(NC(=O)C(C)Oc2ccccc2)c(C(=O)O)cc1OC (configuration not stated) | >57 | -2%
O=S(=O)(NCc1ccccn1)c1cccc2nsnc12 | >57 | -6%
O=C(Cn1cnc2ccccc2c1=O)NCC(=O)N1CCN(Cc2ccc3c(c2)OCO3)CC1 | >57 | -19%
NC[C@H](O)c1ccc(O)cc1 | >57&>57 | ?

The list continues:
mol | SmPrx2 inh | LT uptake inh
CCOC(=O)c1ccc(Oc2cc(C)nc(SC)n2)cc1 | >57 | ?
Nc1c(C(=O)Nc2ccccc2)sc2nc(-c3ccco3)ccc12 | >57 | .
CCn1cc(C(=O)NCc2ccccc2OC)c(=O)c2cc(S(=O)(=O)N(C)C)ccc21 | >57 | -9%
C=CCN1CCN(C(c2ccc(Cl)cc2)c2nnnn2CCc2ccc(OC)c(OC)c2)CC1 (configuration not stated) | >57 | 2%
CCOC(=O)C1CCN(C(=O)Nc2ccc3c(c2)nc(C)n3C)CC1 | >57 | 1%
CC(=O)N1CC=C2C(C#N)=C(N)C(C#N)(C#N)C(CCc3ccccc3)C2C1 (configuration not stated) | >57 | 11%
CNc1ncncc1-c1ccc(C(=O)N(C)C)cc1 | >57 | 0%
CCOc1ncccc1C(=O)Oc1ccc2c(c1)OCO2 | >57 | -3%
COCCCNc1ccnc2c(Cl)cccc12 | >57 | -10%
Cc1nc2cnc(N3CCNCC3)nc2n(Cc2cccs2)c1=O | >57 | -10%
O=c1cc(CSc2ccccn2)[nH]c(=O)[nH]1 | >57 | 4%
CCOC(=O)CSc1nnc(CNC(=O)c2ccc(OC)c(OC)c2)n1C | >57 | -9%
Cc1cc(-c2ccccc2N)n[nH]1 | >57 | -1%
